# BmaI1 enzyme: BmaI1 acyl-homoserine lactone synthase inhibition – biochemical, fluorescence intensity, with counterscreen (AID 720554); 12,000 tested, 0.4% active; inhibition, %; BmaI1 enzyme assay, fluorescence intensity; active compounds read high; test concentration not given here; a few actives read low; strong numbers were not always called active;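 active = both replicates within 2 robust z-scores of the inhibited control and a quiet counterscreen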;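 note: 0% = uninhibited enzyme and 100% = inhibited control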
# BmaI1 enzyme counterscreen: recorded beside BmaI1 enzyme, whose call it bears; inhibition, %; measured here: counterscreen; design of the counterscreen not given here;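 first of two replicates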
# Numbers without * were called inactive.
item	SMILES	BmaI1 enzyme	BmaI1 enzyme counterscreen
1	CCN(C(=O)c1cccc(S(=O)(=O)N2CCCC2)c1)c1nc2c(C)cccc2s1	13	2
2	O=c1cc(CN2CCC(Cc3ccccc3)CC2)c2ccc(O)cc2o1	20	7
3	O=C(Nc1ccc(S(=O)(=O)Nc2ncccn2)cc1)c1ccc2c(c1)C(=O)N(Cc1ccncc1)C2=O	6	4
4	O=C(O)CSc1cnc2ccccc2n1	1	2
5	COC(=O)c1sc2nc[nH]c(=O)c2c1CC(=O)O	42	2
6	CN(Cc1ccccc1)C(=O)Cn1c(=O)oc2ccccc21	-2	-2
7	CCOC(=O)/C=C1\SCC(=O)N1Cc1cc(Cl)cc2c1OCOC2	13	11
8	CCNc1nc(-c2cccnc2)nc2ccccc12	14	7
9	Cc1noc(C)c1COC(=O)[C@H](C)N=C1NS(=O)(=O)c2ccccc21	6	7
10	O=C(CCSc1ccc(Cl)cc1)Nc1ccccc1	15	18
11	COc1ccc(N2CCN(c3nc(N)c4c(N)nc5c(c4c3C#N)CC(=O)N5C)CC2)cc1	23	10
12	CCOc1ccc2ccccc2c1C(=O)N[C@@H]1C(=O)N2[C@@H]1SC(C)(C)[C@@H]2C(=O)O	8	20
13	COC(=O)c1cc(COC(=O)c2cc(CN3C(=O)c4ccccc4C3=O)ccc2OC)oc1C	18	10
14	Cn1ncc2c(=O)n(CC(=O)NC34CC5CC(CC(C5)C3)C4)cnc21	7	7
15	CC(SC1CCCCC1)C(=O)Nc1ccc(S(N)(=O)=O)cc1 (centres undefined)	4	14
16	COc1cccc(CC(=O)Nc2nnc(SCc3ccc(C#N)cc3)s2)c1	4	-4
17	Cc1ccc(S(=O)(=O)N2CCN(c3ccccc3)CC2)s1	12	6
18	CSc1nc(CN2CCN(S(=O)(=O)Cc3ccccc3)CC2)cc(=O)[nH]1	4	0
19	COCC(C)n1c(C)csc1=Nc1ccc(Cl)c(F)c1 (centres undefined)	15	10
20	CN(C)S(=O)(=O)c1cccc(CSc2nnc(Cc3cccs3)n2C2CCCCC2)c1	9	2
21	O=C(COC(=O)/C=C/c1ccc(I)o1)CN1CCN(C(=O)c2ccco2)CC1	19	12
22	Cc1occc1-c1nnc(SC(C)C(=O)NC(C)c2ccc(Cl)cc2Cl)n1C (centres undefined)	8	6
23	Cc1nn(CC(C)C)c2sc(C(=O)O)cc12	6	2
24	N#CC1=C(S)NC(=O)CC1c1ccco1 (centres undefined)	35	2
25	CN(Cc1c(F)cccc1Cl)C(=O)C1=CC=CN2CCS(=O)(=O)N=C12	20	6
26	C=CCn1c(SCC(=O)Nc2ccccc2)nc2scc(-c3cccs3)c2c1=O	12	12
27	Cc1onc(-c2c(F)cccc2Cl)c1C(=O)OCC(=O)N(C)c1ccccc1	20	14
28	Cc1ccc(S(=O)(=O)NC(=O)Nc2ccccc2)cc1	30	8
29	CCc1ccc2c(CN3CCN(Cc4ccccc4)CC3)cc(=O)oc2c1	6	2
30	CC1=C(c2ccc(F)cc2)N2CCS(=O)(=O)N=C2S1	16	42
31	COc1ccc(C(CC(=O)O)NS(=O)(=O)c2ccccc2F)cc1OC (centres undefined)	12	2
32	O=C(COc1ccccc1Cl)NC(=O)NCC1COc2ccccc2O1 (centres undefined)	7	-1
33	Cc1[nH]c2ccccc2c1C(=O)CN1CCN(S(=O)(=O)c2ccccc2F)CC1	12	5
34	Cc1nc(N)[nH]c(=O)c1CCC(=O)O	7	3
35	Cc1cc(=O)oc2cc(OCc3ccc(C(=O)O)cc3)ccc12	14	0
36	CCOCc1c(C(=O)OCC(=O)c2ccccc2)oc2ccccc12	28	2
37	O=C(OCn1nnc2ccccc2c1=O)C1=COCCO1	18	10
38	CC1(c2ccccc2)NC(=O)N(NC(=O)CSc2nnc(-c3ccccc3)o2)C1=O (centres undefined)	36	21
39	O=C(OCCCCN1C(=O)c2ccccc2C1=O)c1n[nH]c2ccccc12	3	4
40	NC(=O)N1CCC(C(=O)O)CC1	-7	8
41	Cc1cc(C)nc(SCc2ccc(C(=O)N/N=C/c3ccco3)cc2)n1	20	6
42	COc1ccc(C)cc1NC(=O)C(OC(=O)c1ccc(Br)o1)c1ccccc1 (centres undefined)	30	0
43	C=CCn1c(=O)c2ccccc2n2c(SCC(=O)N3CCc4ccccc43)nnc12	74	30
44	CC(OC(=O)c1ccc(Br)o1)C(=O)NCC1CCCCC1 (centres undefined)	12	8
45	O=C(CN(Cc1ccco1)C(=O)Cn1cnnn1)Nc1ccc(Cl)c(C(F)(F)F)c1	21	10
46	Cc1ccc(NC(=O)Nc2ccc3c(c2)C(=O)NC3=O)cc1	9	14
47	CNc1ccccc1C(C)(C)c1cc(-c2cccc(OC)c2)no1	18	8
48	Cc1cc(=O)oc2cc(OCC(=O)OCc3nnc(-c4ccccc4)o3)ccc12	12	-1
49	CSc1nc2scc(-c3cccs3)c2c(=O)n1CC(C)C	-7	-10
50	O=S(=O)(c1ccc2c(c1)OCCO2)N1CCN(c2ccnc3cc(Cl)ccc23)CC1	4	2
51	O=C(O)c1ccccc1C(=O)Nc1nccs1	13	14
52	COc1ccccc1COCC(O)CN1CCC(=O)CC1 (centres undefined)	9	6
53	CCOC(=O)N1CCN(C(=O)COC(=O)c2ccc(=O)n(Cc3ccccc3)n2)CC1	10	6
54	CC(C)CCSc1nc2ccccc2n1CC(N)=O	8	4
55	CC1Cc2ccccc2N1C(=O)CSc1nc2scc(-c3ccco3)c2c(=O)n1-c1ccccc1 (centres undefined)	28	0
56	O=C(OCc1ncc(-c2ccccc2)o1)c1ccccc1C(=O)c1ccc2c(c1)OCCO2	8	2
57	CCN(CC)S(=O)(=O)c1ccc2c(c1)nc(CC(=O)O)n2C	62	-2
58	NC(=O)CS(=O)C(c1ccccc1)c1ccccc1 (centres undefined)	4	7
59	CCN(CC)S(=O)(=O)c1ccc(N2CC(C(=O)NC3CCCc4ccccc43)CC2=O)cc1 (centres undefined)	28	8
60	FC(F)(F)c1ccccc1NC1=NCCCS1	-4	-9

# (list continues)
item	SMILES	BmaI1 enzyme	BmaI1 enzyme counterscreen
61	COC(=O)C1=C(C)NC(C)=C(C(=O)OCC(C)C)C1c1ccccc1[N+](=O)[O-] (centres undefined)	26	6
62	CC(O)CNCc1ccccc1OCc1ccccc1F (centres undefined)	6	8
63	OC1(c2ccc(OC(F)F)cc2)CSC(=Nc2cccnc2)N1C1CC1 (centres undefined)	10	8
64	CCOC(=O)OC(C)OC1=C(C(=O)Nc2ccccn2)N(C)S(=O)(=O)c2ccccc21 (centres undefined)	-4	6
65	N#CCNc1ccccc1	-14	-12
66	CCn1ncc2c1N1COCN(C2)c2c(cnn2CC)C1	9	12
67	Cc1cccc(NC(=O)CNC(=O)CSc2nnnn2-c2ccccc2)c1C	8	4
68	COc1ccc(-c2csc(/C(C#N)=C(\O)CSc3nccn3C)n2)cc1OC	26	21
69	NNc1ncnc2ccccc12	39	32
70	O=C(Cn1c(CO)nc2ccccc21)NCC(F)(F)F	10	14
71	C=CCn1c(=O)c2ccccc2n2c(SCc3c(C(=O)OC)sc(N)c3C(=O)OC)nnc12	10	1
72	N/C(=N\S(=O)(=O)c1ccc(Cl)cc1)Nc1nc2ccccc2o1	18	47
73	COc1ccc(-n2cnnc2SC(C)C(=O)N2CC(C)CC(C)C2)cc1 (centres undefined)	0	-6
74	Cc1nn(CC(C)C)c(Cl)c1/C=C/C(=O)O	13	8
75	CC1(C)C2CCC1(CS(=O)(=O)N1CCc3ccccc31)C(=O)C2 (centres undefined)	0	2
76	CSc1nnc(CCCN)n1C1CCCC1	10	6
77	COc1ccc(-n2c(SCC(=O)NC3CC3)nc3ccccc32)cc1	2	-22
78	COc1cccc(-n2ccnc2SCC(=O)Nc2ccc(N3CCN(C)CC3)cc2)c1	26	-2
79	COC(=O)c1cc(NC(=O)COC(=O)C2CCC2)cc(C(=O)OC)c1	13	21
80	C=CCNc1nc(C(=O)OCC(=O)N2CCN(c3ccc(OC)cc3)CC2)cs1	23	-8
81	NS(=O)(=O)c1ccc(CNC(=O)CNC(=O)Cc2ccccc2)cc1	2	4
82	COc1ccccc1CN(C)C(=O)c1cccc(S(=O)(=O)N2CCCC2)c1	4	5
83	C/C(=N\NC(=S)NCc1ccccc1)c1ccc(S(=O)(=O)NCc2ccco2)cc1	10	2
84	Cc1cc(NC(=O)COC(=O)c2cc(-c3ccco3)nc3ccccc23)n(-c2ccccc2)n1	39	12
85	O=C(COC(=O)C1CCCCC1)Nc1ccc2c(c1)OCCO2	4	-2
86	COC(=O)CC1C(=O)NCCN1C(=O)CSc1nnc(Nc2ccc(OC)cc2)s1 (centres undefined)	24	0
87	O=C(C1CC2C=CC1C2)N1CCCc2ccccc21 (centres undefined)	10	-2
88	O=C(CN1C(=O)C2CC=CCC2C1=O)NCc1ccccc1F (centres undefined)	18	9
89	Cc1noc(C)c1CSc1ccc(S(=O)(=O)N(C)C)cn1	16	12
90	O=C(Nc1cccc(F)c1)c1ccccn1	16	10
91	O=C(N/N=C/c1ccncc1)c1ccc(Cn2nnc(-c3ccccc3)n2)cc1	2	-2
92	Cc1occc1-c1nnc(SCc2ccc(C(C)(C)C)cc2)n1N	15	8
93	O=C(CNc1cccc(C(F)(F)F)c1)N=Nc1c(O)[nH]c2ccccc12	8	-2
94	Cc1n[nH]c(C)c1S(=O)(=O)N(C)C	-2	4
95	Cc1nnc(SCC(=O)NC(=O)c2cccn2C)n1Cc1ccccc1	18	8
96	CC(OC(=O)c1ccccc1NC(=O)c1ccco1)C(=O)N1CCN(C(=O)c2ccco2)CC1 (centres undefined)	6	0
97	N#CCC(=O)Nc1ccc(S(N)(=O)=O)cc1	6	6
98	Cc1ccc(-n2c(SCC(=O)c3ccc(C#N)cc3)nc3ccccc32)cc1	2	2
99	Oc1ccc(C2SCCS2)cc1	-8	6
100	CC(C)C(C)NC(=O)CSc1nc(N)cc(N)n1 (centres undefined)	13	6
101	Cc1ccc(OCc2nc(SCc3c(C)noc3C)n[nH]2)cc1	6	1
102	CCOC(=O)/C(C#N)=C/c1c(C)nn(Cc2ccccc2)c1C	7	11
103	CCN(CC(=O)Nc1ccc(S(=O)(=O)N(C)C)cc1)CC(=O)Nc1ccccc1C(F)(F)F	14	3
104	Cc1ccc(S(=O)(=O)NCC(=O)OCc2cc(Cl)cc3c2OCOC3)cc1	15	11
105	Cc1cc(C(=O)COC(=O)c2ccc(Cl)s2)c(C)n1-c1ncn[nH]1	24	14
106	CN(C(=O)COC(=O)c1cccnc1N1CCCC1)c1c(N)n(Cc2ccccc2)c(=O)[nH]c1=O	7	-6
107	O=S1(=O)CCC(N2CCSC2=Nc2ccc(Cl)cc2)C1 (centres undefined)	0	0
108	CN(CCOc1ccccc1)C(=O)NCc1ccccc1	12	7
109	N#Cc1cccc(CSc2nnc(-c3ccccc3F)n2C2CC2)c1	18	2
110	Cc1cccn2c(=O)c(C=C(C#N)C#N)c(Sc3nc4ccccc4s3)nc12	13	2
111	O=C(Cc1ccc(Cl)cc1)OCc1nnc(-c2ccccc2)o1	17	2
112	COc1ccc2c(c1)[C@]13CCCC[C@@H]1[C@H](C2)N(C)CC3	2	10
113	COC(=O)c1ccc(C)c(NC(=O)CC2CCCC2)c1	6	-2
114	Cc1cc(C(=O)COC(=O)c2cc(=O)[nH]c3ccccc23)c(C)n1C	11	8
115	COc1ccc(C2CCCCCN2)cc1 (centres undefined)	4	1
116	CN(c1ccccc1)S(=O)(=O)c1ccc(C(=O)Nc2nccs2)cc1	24	0
117	COc1ccc(N(C=O)C(=S)SC)cc1	5	6
118	CNC(=O)NC(=O)C(Sc1nnnn1C)c1ccccc1 (centres undefined)	20	3
119	CNC1CCCCN(C(=O)c2ccc(F)cc2)C1=O (centres undefined)	0	5
120	Cc1cc(SCC(=O)N(C)C)n2c(nc3ccccc32)c1C#N	22	4

# Excerpt, nos. 109 to 110
item	SMILES	BmaI1 enzyme	BmaI1 enzyme counterscreen
109	N#Cc1cccc(CSc2nnc(-c3ccccc3F)n2C2CC2)c1	18	2
110	Cc1cccn2c(=O)c(C=C(C#N)C#N)c(Sc3nc4ccccc4s3)nc12	13	2

# 15 compounds from above, sorted by molar mass, falling:
item	SMILES	BmaI1 enzyme	BmaI1 enzyme counterscreen
106	CN(C(=O)COC(=O)c1cccnc1N1CCCC1)c1c(N)n(Cc2ccccc2)c(=O)[nH]c1=O	7	-6
110	Cc1cccn2c(=O)c(C=C(C#N)C#N)c(Sc3nc4ccccc4s3)nc12	13	2
116	CN(c1ccccc1)S(=O)(=O)c1ccc(C(=O)Nc2nccs2)cc1	24	0
105	Cc1cc(C(=O)COC(=O)c2ccc(Cl)s2)c(C)n1-c1ncn[nH]1	24	14
109	N#Cc1cccc(CSc2nnc(-c3ccccc3F)n2C2CC2)c1	18	2
114	Cc1cc(C(=O)COC(=O)c2cc(=O)[nH]c3ccccc23)c(C)n1C	11	8
107	O=S1(=O)CCC(N2CCSC2=Nc2ccc(Cl)cc2)C1 (centres undefined)	0	0
111	O=C(Cc1ccc(Cl)cc1)OCc1nnc(-c2ccccc2)o1	17	2
120	Cc1cc(SCC(=O)N(C)C)n2c(nc3ccccc32)c1C#N	22	4
118	CNC(=O)NC(=O)C(Sc1nnnn1C)c1ccccc1 (centres undefined)	20	3
108	CN(CCOc1ccccc1)C(=O)NCc1ccccc1	12	7
113	COC(=O)c1ccc(C)c(NC(=O)CC2CCCC2)c1	6	-2
112	COc1ccc2c(c1)[C@]13CCCC[C@@H]1[C@H](C2)N(C)CC3	2	10
117	COc1ccc(N(C=O)C(=S)SC)cc1	5	6
115	COc1ccc(C2CCCCCN2)cc1 (centres undefined)	4	1

# New compounds follow
item	SMILES	BmaI1 enzyme	BmaI1 enzyme counterscreen
121	Cn1c(-c2ccccc2)c(C(=O)COC(=O)c2ccc(-n3cnnn3)cc2)c2ccccc21	6	5
122	CC(C)(C)SCC(=O)Nc1cc(S(C)(=O)=O)ccc1Cl	11	0
123	CCC(/C=N/N1C(=O)c2ccccc2C1=O)CC	2	2
124	Cc1ccsc1C(=O)N(C)Cc1ccc2c(c1)OCCO2	-6	8
125	Cc1cc(SCC(=O)O)n2c(nc3ccccc32)c1C#N	20	1
126	c1ccc(N2CCN(c3ccc(-c4nc5ccccc5[nH]4)cn3)CC2)cc1	13	0

# Compound activity (PubChem BioAssay)

# Not all compounds are listed; count on the stated rates, not on these rows.
